PKD1 inh = inhibitors of human PKD1 kinase, biochemical, fluorescence polarization | PKD1 kinase fluorescence polarization assay | inhibition, %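 (about 10 µM by stock and volumes)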 | 200,000 tested, 0.056% active | Serine/threonine-protein kinase D1 (Homo sapiens), Q15139 | AID 797, 2007;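 active means inhibition of 50% or more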;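 further: controls were vehicle for no effect and a reference inhibitor for full effect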
GALR2 ag = GALR2 receptor agonists, primary screen, cell-based | GALR2-expressing cells, agonist activation read-out | Galanin receptor type 2 (Homo sapiens), O43603 | activation, %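 (tested at 5 µM)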 | 140,000 tested, 0.48% active | AID 803, 2007;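 active means above mean plus 3 SD of all compounds, about 5% in these data, not always enough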;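 further: 0% = vehicle buffer wells and 100% = reference agonist at full effect; tested in CHO reporter cells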
Target sequence (O43603 whole entry, looked up): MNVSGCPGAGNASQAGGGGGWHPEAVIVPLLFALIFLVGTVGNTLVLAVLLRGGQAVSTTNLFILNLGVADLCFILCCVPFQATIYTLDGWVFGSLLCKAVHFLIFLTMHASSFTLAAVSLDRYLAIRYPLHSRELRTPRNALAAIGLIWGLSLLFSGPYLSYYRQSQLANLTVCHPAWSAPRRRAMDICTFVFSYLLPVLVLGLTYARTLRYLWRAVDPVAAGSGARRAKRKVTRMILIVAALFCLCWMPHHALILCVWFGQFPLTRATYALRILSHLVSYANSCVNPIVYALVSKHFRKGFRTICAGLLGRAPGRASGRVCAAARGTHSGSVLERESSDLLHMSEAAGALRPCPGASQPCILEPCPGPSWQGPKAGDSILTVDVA
HSV replic up = enhancers of HSV replication in host cells, fold increase, host cell viability. AID 1956, 2009. HSV replication augmentation in cells. 220,000 tested, 0.005% active. maximum fold increase;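 active means peak rise of 1.5-fold or more in the series; inconclusive means self-fluorescent or not available for retest; tested in PC3 cells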;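 further: first round at 10 µM; read as green reporter fluorescence; hits show the peak of a series up to 25 µM; 1 = signal of infected wells without compound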
INS promoter inh = inhibitors of insulin promoter-driven GFP, primary screen, imaging, TRM-6 cells (human fetal islet line), eGFP reporter, cell count. reporter expression induced with tamoxifen. inhibition, % at 2 µM. 130,000 tested, 0.9% active. AID 1273, 2008;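 active means inhibition above the mean plus 3 SD, with well images judged a real hit on visual review, cut at about 60% in these data, passing the limit was not always enough; inconclusive means inhibition over the cutoff but images rejected on review; inactive means inhibition not above the cutoff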
RGS16-Gao = modulators of RGS16 binding to Galphao, primary screen, biochemical, human proteins, multiplexed bead flow cytometry; binding response (% of control), % at 10 µM; 220,000 tested, 0.38% active; AID 1441, 2008; Regulator of G-protein signaling 16 (Homo sapiens) + Guanine nucleotide-binding protein …; bead-based flow cytometry RGS16-Galphao binding, fluorescence; actives lie on both sides;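 active means below 25% or above 175%, edge rows of some plates excepted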;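 further: Galphao activated by GDP with aluminum fluoride before binding; 100% = wells without compound and 0% = beads without RGS; some results beyond the cut were filed as inactive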
Target sequence (O15492 whole entry, looked up): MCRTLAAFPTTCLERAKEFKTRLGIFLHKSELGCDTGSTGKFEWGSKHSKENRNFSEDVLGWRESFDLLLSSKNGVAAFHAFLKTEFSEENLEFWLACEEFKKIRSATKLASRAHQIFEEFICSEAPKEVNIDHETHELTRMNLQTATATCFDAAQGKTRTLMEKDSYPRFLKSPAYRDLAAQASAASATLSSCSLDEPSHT
Target sequence (P09471 whole entry, looked up): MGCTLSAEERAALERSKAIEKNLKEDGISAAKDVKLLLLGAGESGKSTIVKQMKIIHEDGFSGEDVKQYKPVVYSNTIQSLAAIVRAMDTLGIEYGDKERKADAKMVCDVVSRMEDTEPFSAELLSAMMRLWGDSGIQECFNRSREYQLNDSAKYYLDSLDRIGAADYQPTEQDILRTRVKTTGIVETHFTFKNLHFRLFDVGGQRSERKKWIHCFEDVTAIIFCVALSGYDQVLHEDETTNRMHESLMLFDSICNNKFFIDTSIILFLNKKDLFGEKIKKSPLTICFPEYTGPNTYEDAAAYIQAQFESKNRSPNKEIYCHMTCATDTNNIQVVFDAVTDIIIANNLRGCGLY
INS promoter inh cell count = also measured in INS promoter inh; calls as there; normalized cell count, %; measured here: cell count, toxicity; reference of the scale not given here;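 cells exposed to compound for 48 h; stained nuclei by imaging scaled within each plate; lower means fewer cells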
HSV replic up primary fold = recorded beside HSV replic up, whose call it bears; fold increase; compound at 10 µM; measured here: primary screen fold increase 10 uM; tested in PC3 cells;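 GFP signal in the first replicate; 1 = infected wells without compound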
* hit, by the source's call; i = inactive; ? = inconclusive; nt = not tested or not shown. Rows were taken by chance; overall some 1.3% were active at least once.

SMILES	PKD1 inh	GALR2 ag	HSV replic up	HSV replic up primary fold	INS promoter inh	INS promoter inh cell count	RGS16-Gao
COC(=O)Cc1c(O)ccn(Cc2cccc3ccccc23)c1=O	-17.9	-2.8	i	0.85	17.9	83.4	100.2
O=C(NCc1ccccc1Cl)C(=O)c1c[nH]c2ccccc12	-0.6	nt	i	1.01	2.3	85.7	98.3
Cc1cccc(NC(=O)CSc2nc(C)c(Cc3ccccc3)c(=O)[nH]2)c1C	2.6	nt	i	1.05	nt	nt	100.8
CCn1c(SCC(=O)Nc2ccc3[nH]c(=O)[nH]c3c2)nnc1-c1ccccc1	nt	nt	i	0.83	nt	nt	102.2
COc1ccc(NC(=O)C(=O)N/N=C/c2cc(C)n(-c3cccc(Cl)c3Cl)c2C)c(OC)c1	-5.8	-1.5	i	0.7	0.0	134.9	103.7
O=C(O)c1ccc(S(=O)(=O)c2ccc3c(c2)C(=O)N(c2ccc(O)cc2)C3=O)cc1	nt	nt	i	0.81	nt	nt	103.2
O=C(CN(Cc1ccccc1)C(=O)c1ccco1)NCc1ccc(F)cc1	-3.1	-0.6	i	0.93	nt	nt	106.7
COc1ccc(S(=O)(=O)N(C)C)cc1NC(=O)COC(=O)c1nn(C)c(=O)c2ccccc12	-0.8	nt	i	0.92	nt	nt	97.6
Cc1occc1-c1nnc(SCC(=O)N2c3ccccc3CCc3ccccc32)n1C	0.5	-1.1	i	0.78	nt	nt	95.8
CC(NS(C)(=O)=O)C(c1cccs1)N1CCN(c2ccc(F)cc2)CC1 (centres undefined)	-6.7	-2.8	i	1.3	nt	nt	104.7
CC1CN(c2snnc2C=C2C(=O)OC(C)(C)OC2=O)CC(C)O1 (centres undefined)	1.7	nt	i	0.97	0.0	68.2	78.8
O=C1/C(=C/c2cccnc2)SC(=S)N1N1CCOCC1	nt	nt	i	0.98	nt	nt	96.0
O=C1N/C(=N/N=C/c2ccccc2O)SC1Cc1ccc(F)cc1 (centres undefined)	nt	nt	i	0.88	nt	nt	99.8
Cc1ccc(C(=O)Cn2nnc3ccccc32)cc1C	1.4	-2.2	i	1	-23.3	137.4	96.2
N#CCCn1[nH]c(-c2ccccc2)cc1=O	-3.1	-1.4	i	0.96	18.2	161.8	103.6
O=S1(=O)C=C(SCc2ccc(Cl)c(Cl)c2)Nc2ccccc21	0.3	1.0	i	0.89	-6.8	139.2	103.5
CCCCC(=O)Nc1ccc(C(=O)NCCc2ccc(S(N)(=O)=O)cc2)cc1	-8.0	nt	i	0.95	nt	nt	101.4
COc1ccc(Nc2nc(N)nc(CSc3nnc(C)s3)n2)cc1	2.9	0.1	i	1.01	56.2	148.7	18.9
CC1CN(S(=O)(=O)c2ccc(NC(=O)CCCN3C(=O)c4ccccc4C3=O)cc2)CC(C)O1 (centres undefined)	-8.6	-2.2	i	1.02	36.4	94.0	103.7
COc1ccc(CCNC(=O)CN(c2cc([N+](=O)[O-])ccc2OC)S(C)(=O)=O)cc1OC	7.2	nt	i	0.91	14.3	88.7	100.9
C/C(CCC1CC(C)OC1=O)=N\NC(N)=O (centres undefined)	nt	nt	i	0.93	nt	nt	98.2
O=C(O)c1cccc(Nc2ncnc3sccc23)c1	-10.5	nt	i	1.01	-36.8	92.5	101.8
CC(C)(C)c1ccc2c(c1)OC(C(=O)N/N=C\c1ccccn1)CO2 (centres undefined)	15.2	-0.7	i	0.91	-1.5	102.6	99.2
Cc1cccc(N(CC(=O)NCCSCc2ccco2)S(=O)(=O)c2ccccc2)c1	-11.0	-0.3	i	0.77	29.0	54.9	86.4
COCC(=O)Nc1ccc(N(C)C)cc1	-11.0	-2.4	i	1.05	33.3	159.3	98.8
O=C(Cc1noc2ccccc12)NNC(=S)Nc1ccc(Cl)cc1	-8.6	nt	i	0.92	20.0	105.6	99.8
O=C(Nc1ccc(Cl)cc1F)c1ccccc1Br	9.8	-0.4	i	1.08	-42.9	83.5	90.0
Cc1cc(C)c(OCCN(C)C)c(Cl)c1	1.2	nt	i	0.78	nt	nt	102.3
O=C(Nc1ccc(N2CCCC2)c(Cl)c1)c1cccs1	-2.6	nt	i	0.91	nt	nt	76.5
O=[N+]([O-])c1c(C(Cl)Cl)nn(-c2ccc(Cl)cc2)c1N1CCCCC1	1.3	-1.8	i	0.94	-5.6	74.1	90.1
O=C(Nc1cccc(Br)c1)c1ccc(Cl)c(S(=O)(=O)N2CCOCC2)c1	-8.8	-0.7	i	0.96	31.6	115.8	97.1
O=C(CSc1cccc[n+]1[O-])c1cc(Cl)ccc1Cl	-4.5	nt	i	0.87	-91.7	147.7	106.4
COc1ccccc1C(=O)N1CCc2ccccc21	-11.2	-1.7	i	0.93	nt	nt	106.9
Cc1ccc2cn[nH]c2c1NC(=S)NC(=O)c1ccccc1	-11.8	-3.8	i	0.99	-13.3	138.3	111.4
Cc1cccc(C(=O)NNC(=O)Nc2ccccc2)c1	-6.2	nt	i	0.97	8.3	129.0	104.8
COc1cccc(-c2nnc(SCC(=O)Nc3ccc4c(c3)OCCO4)n2Cc2ccco2)c1	3.6	-3.2	i	1.02	-14.3	43.7	48.8
COc1cc(CNC2CCCC2)cc(Br)c1OCC(=O)Nc1ccccc1C	7.8	nt	i	0.82	15.0	88.7	99.1
CC(C)(C)CC(C)(C)NC1=CC(=O)OC12CCCCC2	2.1	-1.9	i	0.88	-2.9	149.4	95.3
COc1ccc(C(=O)O)cc1S(=O)(=O)NC(C)(C)C	nt	nt	i	0.87	nt	nt	91.0
COc1ccc(OC)c(-n2cnnn2)c1	-1.9	-0.8	i	0.83	0.0	90.2	105.4
COc1ccc(-c2c(-c3ccc(OCC(=O)NN)cc3O)n[nH]c2C(F)(F)F)cc1	17.1	0.0	i	0.86	-45.5	101.7	85.0
CC(C)(C)C1=CC=C(C(C)(C)C)C(=O)C1=O	nt	nt	i	1.08	nt	nt	69.1
Cc1ccc(C(=O)CC(=O)c2ccc(C(C)(C)C)cc2)cc1	2.0	nt	i	0.98	nt	nt	106.2
Cc1sc2ncnc(NCCc3ccc(S(N)(=O)=O)cc3)c2c1C	-2.0	1.9	nt	nt	18.9	57.2	97.8
COc1cccc(-c2cc3c(=O)n(-c4ccccc4)c(=S)[nH]c3s2)c1	-16.7	-3.4	?	nt	32.3	134.3	103.9
N#Cc1c(NC(=O)CSc2ccccn2)oc(-c2ccccc2)c1-c1ccccc1	4.9	-0.3	i	0.85	26.9	85.2	106.1
CSc1c(C#N)c(N)nc2sc(C(=O)c3ccccc3)c(N)c12	nt	nt	i	1.02	nt	nt	98.1
CCCOc1ccc(N2C(=O)CC(N3CCN(c4ccccc4F)CC3)C2=O)cc1 (centres undefined)	-4.1	-1.3	i	1.07	nt	nt	98.4
Cc1ccc(S(=O)(=O)C2(C(=O)Nc3cccnc3)CC2)cc1	-1.2	-0.8	i	0.95	nt	nt	97.9
CN(C(=O)/C=C/c1cnc2ccccc2c1)C1CCCCC1	-6.1	nt	i	0.94	nt	nt	96.2

More entries.
SMILES	PKD1 inh	GALR2 ag	HSV replic up	HSV replic up primary fold	INS promoter inh	INS promoter inh cell count	RGS16-Gao
CC(C)N(C(=O)CSc1nnc(CNc2ccc(F)cc2)o1)C(C)C	-6.8	-2.2	i	1.18	-62.5	106.0	108.4
COc1ccccc1CC(=O)O/N=C(\N)c1ccccn1	nt	nt	i	1.01	nt	nt	98.0
Cn1c(=O)c2c(nc(Br)n2CC(=O)C23CC4CC(CC(C4)C2)C3)n(C)c1=O	-5.7	-0.1	i	0.82	-9.7	131.3	100.2
Cc1ccc2c(C(=O)CN3CCN(C(=O)c4ccco4)CC3)c(C)[nH]c2c1	nt	nt	i	1.14	nt	nt	92.5
Brc1cccc(-c2nnc3sc(CNCc4ccco4)cn23)c1	1.6	-4.3	i	0.96	nt	nt	103.7
CCOc1cc(NC2CS(=O)(=O)CC2O)c(OCC)cc1NC(=O)c1ccccc1 (centres undefined)	-14.8	-2.8	i	0.997	14.3	165.2	101.5
CCOC(=O)Nc1cccc(OCC(=O)Nc2ccccc2OCC)c1	6.0	-1.3	i	0.7	-13.5	169.5	110.7
COc1cc(C(=O)N/N=C/c2ccc(OC(=O)N3CCOCC3)cc2)cc(OC)c1OC	-3.9	0.5	i	0.65	5.6	49.1	99.4
CC(C)(C)C(=O)NNc1nc(-c2ccccc2)c2cc(Br)ccc2n1	2.1	0.8	i	0.95	nt	nt	102.1
CC(OC(=O)c1ccco1)C(=O)Nc1ccc(Cl)cn1 (centres undefined)	-7.6	nt	i	1	nt	nt	101.6
Cc1nc(CS(=O)c2ccc(Cl)cc2)cc(NCc2ccc(Cl)cc2Cl)n1 (centres undefined)	-2.4	-1.7	i	0.9	-16.7	92.1	99.0
C/C(=N\n1cnnc1)c1ccc(C#N)cc1	-7.3	nt	i	1.05	8.3	76.1	102.2
CC1(OC(=O)c2ccc(Cl)nc2)C(=O)C=C2C=C3CCCN3C=C2C1=O (centres undefined)	nt	nt	i	1.18	nt	nt	100.7
Cc1ccc(Cc2cnc(NC(=O)CN3CCOCC3)s2)cc1Cl	13.4	-1.1	i	1.11	-18.2	90.0	42.3
CCN1/C(=C\C=C(C(C)=O)C(C)=O)Sc2ccccc21	-3.2	nt	?	nt	i	130.7	93.7
Cc1cc(NC(=O)CSc2nc(C(C)C)nc3sc(C)c(C)c23)no1	-10.7	-2.3	i	0.76	12.1	81.1	102.0
Cc1cc(C)c(O)c(-c2cc(C(=O)Nc3cccnc3)[nH]n2)c1	nt	nt	i	0.91	nt	nt	106.0
Cc1nc(NCC2CCCO2)c2nnn(Cc3ccccc3Cl)c2n1 (centres undefined)	10.9	-1.4	i	0.87	38.5	81.3	102.5

Compounds shown so far containing an aryl methoxy group, in the order listed:
SMILES	PKD1 inh	GALR2 ag	HSV replic up	HSV replic up primary fold	INS promoter inh	INS promoter inh cell count	RGS16-Gao
COc1ccc(NC(=O)C(=O)N/N=C/c2cc(C)n(-c3cccc(Cl)c3Cl)c2C)c(OC)c1	-5.8	-1.5	i	0.7	0.0	134.9	103.7
COc1ccc(S(=O)(=O)N(C)C)cc1NC(=O)COC(=O)c1nn(C)c(=O)c2ccccc12	-0.8	nt	i	0.92	nt	nt	97.6
COc1ccc(Nc2nc(N)nc(CSc3nnc(C)s3)n2)cc1	2.9	0.1	i	1.01	56.2	148.7	18.9
COc1ccc(CCNC(=O)CN(c2cc([N+](=O)[O-])ccc2OC)S(C)(=O)=O)cc1OC	7.2	nt	i	0.91	14.3	88.7	100.9
COc1ccccc1C(=O)N1CCc2ccccc21	-11.2	-1.7	i	0.93	nt	nt	106.9
COc1cccc(-c2nnc(SCC(=O)Nc3ccc4c(c3)OCCO4)n2Cc2ccco2)c1	3.6	-3.2	i	1.02	-14.3	43.7	48.8
COc1cc(CNC2CCCC2)cc(Br)c1OCC(=O)Nc1ccccc1C	7.8	nt	i	0.82	15.0	88.7	99.1
COc1ccc(C(=O)O)cc1S(=O)(=O)NC(C)(C)C	nt	nt	i	0.87	nt	nt	91.0
COc1ccc(OC)c(-n2cnnn2)c1	-1.9	-0.8	i	0.83	0.0	90.2	105.4
COc1ccc(-c2c(-c3ccc(OCC(=O)NN)cc3O)n[nH]c2C(F)(F)F)cc1	17.1	0.0	i	0.86	-45.5	101.7	85.0
COc1cccc(-c2cc3c(=O)n(-c4ccccc4)c(=S)[nH]c3s2)c1	-16.7	-3.4	?	nt	32.3	134.3	103.9
COc1ccccc1CC(=O)O/N=C(\N)c1ccccn1	nt	nt	i	1.01	nt	nt	98.0
COc1cc(C(=O)N/N=C/c2ccc(OC(=O)N3CCOCC3)cc2)cc(OC)c1OC	-3.9	0.5	i	0.65	5.6	49.1	99.4

Screens deposited in PubChem BioAssay by several laboratories.
